Assay outcomes as filed in PubChem BioAssay.
TRPML1 inh = qHTS for Inhibitors of the Human Mucolipin Transient Receptor Potential 1 (TRPML1); TRPML1-inducible cells, Ca2+ dye fluorescence, FDSS; stronger effect = lower value; inhibition of EC80 agonist-evoked calcium signal; activity change, negative = inhibition, % (no concentration beside the values); 390,000 compounds, 0.02% hits; in the data active means activity change below about -50%; inconclusive means about -30% to -50%; inactive means above about -30%;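 also: stimulus is agonist 54-4 at its EC80 concentration; % is scaled to controls: 0 for no effect and ±100 for the full control effect; compound concentration not given in the record; the text of the record puts the active cut at -80%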
Target sequence (Q9GZU1 whole entry, looked up): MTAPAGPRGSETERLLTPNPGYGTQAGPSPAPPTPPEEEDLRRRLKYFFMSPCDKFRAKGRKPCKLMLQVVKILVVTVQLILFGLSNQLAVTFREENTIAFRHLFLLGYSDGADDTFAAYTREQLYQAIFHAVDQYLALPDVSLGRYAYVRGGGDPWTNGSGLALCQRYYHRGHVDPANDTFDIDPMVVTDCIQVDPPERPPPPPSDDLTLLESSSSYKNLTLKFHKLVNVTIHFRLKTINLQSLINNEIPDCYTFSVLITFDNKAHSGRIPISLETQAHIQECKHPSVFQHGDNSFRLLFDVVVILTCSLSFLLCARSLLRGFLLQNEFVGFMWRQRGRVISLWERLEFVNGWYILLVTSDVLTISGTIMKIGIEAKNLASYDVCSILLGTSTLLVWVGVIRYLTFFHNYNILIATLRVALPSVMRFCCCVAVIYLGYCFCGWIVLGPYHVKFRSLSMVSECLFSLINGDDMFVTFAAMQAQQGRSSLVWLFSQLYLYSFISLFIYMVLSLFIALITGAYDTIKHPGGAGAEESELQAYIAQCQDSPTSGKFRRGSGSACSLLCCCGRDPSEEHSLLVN
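TRPML1-DL cells, Tet-induced overnight (~16 h, 37 °C) at 1,500 cells/well, were loaded with Ca8 no-wash dye plus quencher for 45-90 min at room temperature. Compounds were pinned during FDSS kinetic reading; agonist 54-4 at EC80 (4 uM final) then added.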
TRPML1 ag = qHTS for Agonists of the Human Mucolipin Transient Receptor Potential 1 (TRPML1); 410,000 compounds, 0.12% hits; Mucolipin-1 (Homo sapiens), Q9GZU1; TRPML1-expressing cells, Ca2+ dye fluorescence, FDSS; host cell line not named in the record; reference of the full effect not given here; AID 624414, 2012; activation, % (concentration not given with the values); in the data active = activation above about 50%; inconclusive = about 30% to 50%; inactive = below about 30%; also: 0% is about no effect; the text of the record puts the active cut at 80%
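Kinetic FDSS Ca2+ read in Tet-induced TRPML1-DL cells (ABD Ca8 dye plus quencher, 45-90 min RT loading): baseline, then compound, then 110 s agonist window; EC80 agonist 54-4 at 4uM final added afterwards for a 110 s antagonist window.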
The depositor's hits bear a star. An excerpt, so the mix of outcomes need not match the whole.

SMILES	TRPML1 inh	TRPML1 ag
CCOc1ccc(NC(=O)c2cc3cc(C)ccc3n2C)cc1	7	-1.0
CCOc1cccc(C2CC(=O)Nc3cc4c(cc32)OCCO4)c1 (stereo not given)	-8	3.0
COc1cc(NC(=O)C(NC(=O)C2CCC(C)CC2)C(C)C)cc(OC)c1OC (stereo not given)	-5	0.0
Cc1ccc(C(c2sc3nc(-c4ccco4)nn3c2O)N2CCC3(CC2)OCCO3)cc1 (stereo not given)	-4	3.2
COc1ccc(NC(=O)c2ccco2)cc1NC(=O)COc1ccc(Cl)c(C)c1	6	3.3
COc1cccc(CNc2ncc(-c3ccc(Br)cc3)n2C)c1	-11	-0.3
CC(C(=O)Nc1ccccc1C(F)(F)F)n1nnc2sc3c(c2c1=O)CCCC3 (stereo not given)	-20	1.0
CC(C)CCNC(=O)c1cc2cc(S(=O)(=O)N3CCCCC3)ccc2n1C	-12	3.8
Cc1ccc(CN2CCN(C3CCN(S(=O)(=O)N(C)C)CC3)C(=O)C2=O)cc1	26	0.1
COc1cc2c(cc1OC)C(COc1ccc3c(C)cc(=O)oc3c1)N(C(=O)Cc1ccc(F)cc1)CC2 (stereo not given)	-12	-0.8
CCOC(=O)c1c(C)oc2ccc(N(C(=O)Oc3ccccc3)S(=O)(=O)c3ccc(CC)cc3)cc12	28	0.2
CCOc1ccc2nc(N3CCCC(C(=O)NCCc4ccc(SC)cc4)C3)sc2c1 (stereo not given)	-6	1.5
COc1cccc(C(=O)Nc2ccc(-n3nncc3-c3ccccc3)cc2)c1OC	14	0.5
O=C(Nc1cc(Cl)cc(Cl)c1)c1ccc(F)c(S(=O)(=O)N2CCN(c3ccccc3F)CC2)c1	-1	0.7
CCNC(=O)c1ccc(CSc2nc3ccncc3n2Cc2ccc(F)cc2)cc1	-14	-0.3
CCc1ccccc1NC(=O)Cn1nc(-c2cc(C)ccc2C)c2c(c1=O)CCCC2	0	-0.5
COc1ccc(-c2c(C)c3ccc(O)c(CN4CCCCC4C)c3oc2=O)cc1OC (stereo not given)	13	-0.7
CCCCCn1cc2c(c1-c1ccccc1Br)c(=O)n(C)c(=O)n2C	5	-0.6
CC(C)c1ccc(NC(=O)c2cc(S(=O)(=O)N3CCCCC3)cn2C)cc1	-1	2.0
Cc1cc2nn(-c3ccc(F)cc3)nc2cc1NC(=O)c1cccc2ccccc12	-1	3.4
COc1ccc(OC)c(NC(=O)C2CCCN(S(=O)(=O)c3ccc4c(c3)CCCC(=O)N4)C2)c1 (stereo not given)	-14	1.5
CC(C)CCOc1ccccc1Cn1c(=O)sc2ccccc21	-11	1.2
Cc1sc2ncn(CC(=O)N3CCN(c4ccc(F)cc4)CC3)c(=O)c2c1S(=O)(=O)N1CCC(C)CC1	-2	-0.4
Cc1cc(Cl)ccc1NC(=O)Cc1ccc(NC(=O)N2CCCCc3ccccc32)cc1	7	0.7

Complete entries, quoted from the list. Screens in order: TRPML1 inh | TRPML1 ag
CC(C)c1ccc(NC(=O)c2cc(S(=O)(=O)N3CCCCC3)cn2C)cc1 is listed as -1 | 2.0
Cc1sc2ncn(CC(=O)N3CCN(c4ccc(F)cc4)CC3)c(=O)c2c1S(=O)(=O)N1CCC(C)CC1 is listed as -2 | -0.4

More records:
SMILES	TRPML1 inh	TRPML1 ag
Cc1ccc(NC(=O)/C=C/c2ccccc2Cl)cc1Cl	-29	1.7
Cc1ccc(Cl)cc1NS(=O)(=O)c1ccc(N2CCCCS2(=O)=O)cc1	-20	2.2
CC(=O)c1cccc(Nc2ncnc3c2cnn3C)c1	-7	0.1
Cc1ccc(C)c(NC(=O)Cn2nc(C)c3nn(-c4ccc(Cl)cc4)c(C)c3c2=O)c1	-19	-0.8
Cc1csc2nc(-c3cccc(NS(C)(=O)=O)c3)cn12	-9	1.2
COc1ccc(C(=O)Nc2cccc(-c3cn4ccsc4n3)c2)cc1OC	9	-0.8
COc1cccc2sc(N(Cc3cccnc3)C(=O)c3ccco3)nc12	7	0.9
CCOC(=O)c1c(NC(=O)c2cc(=O)c3c(C)cc(C)cc3o2)sc(C)c1C	35	4.2
Cc1ccc(C)c(CN2C(=O)c3ccccc3S(=O)c3ccc(C(=O)N4CCN(c5cccc(Cl)c5)CC4)cc32)c1 (stereo not given)	-2	0.7
COc1cc2c(cc1OC)C(COc1ccc3c(C)cc(=O)oc3c1)N(C(=O)CC(C)C)CC2 (stereo not given)	12	-0.8
CCc1ccc2oc(C(=O)Nc3ccccc3C(=O)OC)cc(=O)c2c1	1	0.7
CCOC(=O)c1c(C)oc2ncnc(Nc3cccc(C(F)(F)F)c3)c12	-2	-0.8
CCOc1ccc2nc(NC(=O)c3cc(=O)c4cc(C)cc(C)c4o3)sc2c1	-16	0.5
CCOC(=O)c1cc(-c2ccccc2)n(CCC(=O)NC2CCCCC2)c1C	-18	1.4
CCn1cc2nc(SCc3ccccc3)n(Cc3ccc(C)cc3)c(=O)c2n1	9	-0.1
COc1ccc(C(=O)NCc2nnnn2-c2ccc(C)c(C)c2)cc1	-1	-0.7
Cc1ccccc1Nc1c(-c2c[nH]c3ccccc23)nc2cccc(C)n12	-9	0.9
CCc1cccc(NC(=O)CSc2nncn3c2cc2sccc23)c1	8	1.9
CCC1CCCCN1CCCNC(=O)c1[nH]c2ccccc2c1Sc1ccc(Cl)cc1 (stereo not given)	-24	-0.3
CCc1ccccc1NC(=O)c1ccc2nc(CCc3ccccc3)oc2c1	64	1.2
CCn1c(=O)c2sccc2n2c(CCC(=O)Nc3ccc(OC)c(Cl)c3)nnc12	-13	-0.9
CCc1c(CN2CCN(c3cccc(C)c3)C(C)C2)csc1C (stereo not given)	2	-0.1
CCOc1ccc(S(=O)(=O)NCC(c2ccco2)S(=O)(=O)c2ccc(F)cc2)cc1 (stereo not given)	11	2.1
Cn1ccc2c(OCC(=O)Nc3cc(C(F)(F)F)ccc3Cl)cccc2c1=O	-12	-0.2
COc1ccc(NC(=O)c2nnn(Cc3nc(-c4cc(OC)c(OC)c(OC)c4)oc3C)c2C)cc1Cl	2	-0.6
CCCN(Cc1cccs1)C(=O)Nc1cc(C)ccc1OC	41	1.8
Cc1cc2[nH]c(=O)c(=O)[nH]c2cc1S(=O)(=O)NCc1ccc(F)cc1	-15	3.6
CCC1CCCCN1CC(=O)N1CCCc2c1c(=O)oc1ccc(OCc3ccccc3)cc21 (stereo not given)	45	0.2
O=C(CCn1c(=O)c2ccccc2n(CC(=O)Nc2ccc(F)cc2)c1=O)NCCc1ccccc1	-2	-0.4
CCc1nn(CC(=O)NCC(C)c2ccccc2)c(=O)c2cc3occc3n12 (stereo not given)	0	-1.2
COCc1cc(C)nc2sc3c(c12)NC(c1ccc(O)c(OC)c1)N(c1ccccc1)C3=O (stereo not given)	-1	1.6
CC(=O)c1cccc(NS(=O)(=O)c2c(C)nc3sc(C)cn3c2=O)c1	-7	-0.5
Cc1ccc(S(=O)(=O)n2nc(-c3ccco3)nc2NCc2ccccc2Cl)cc1	-23	0.1
Cc1ccc(NC(=O)CCCn2nc(C)c3c(C)n(-c4ccccc4)nc3c2=O)cc1Cl	3	0.3
Cc1ccc(S(=O)(=O)Nc2ccc3c(c2)c(C(=O)OC(C)C)c(C)n3S(=O)(=O)c2ccc(C)cc2)cc1	-12	1.7
Cc1ccc(-c2cc(-c3coc4ccccc4c3=O)c3c(n2)-c2cc(Cl)ccc2OC3)cc1	-9	-0.3
COc1cccc(NC(=O)Cn2nc(-c3ccncc3)ccc2=O)c1	-3	-0.7
CCCCNC(=O)C1CCN(c2nc3ccc(C)cc3[nH]2)CC1	-1	1.2
COc1ccc(C2C(C(=O)Nc3ccc(C)cc3C)=C(C)Nc3nc(SC)nn32)cc1OC (stereo not given)	9	-1.0
COc1cccc(CNC(=O)Cc2c(C)c3cc4c(C)coc4cc3oc2=O)c1	10	0.5
COc1cccc(-n2c(=O)c3sc4ccccc4c3n(CC(=O)Nc3ccccc3C)c2=O)c1	24	-0.3
Cc1nc2c(c(C)c1CCC(=O)Nc1cccc(C(F)(F)F)c1)c(=O)n(C)c(=O)n2C	-15	-0.7
Cc1ccc(CNC(=O)CCC(=O)N2Cc3ccccc3Oc3ncccc32)cc1	-14	-0.2
COc1ccc(CNc2ncnc3c2nnn3C)cc1	-1	2.3
CCCCN1C(=O)C(O)(CC(=O)c2ccc(C)cc2C)c2cc(Br)ccc21 (stereo not given)	-2	1.0
Cc1cc(C)n(C(C)CC(=O)Nc2ccc(C)c(N(C)C)c2)n1 (stereo not given)	-6	0.8
CCOc1ccc(NC(=O)CN2CCN(CC(=O)Nc3ccc(F)cc3F)CC2)cc1	27	1.6
COc1cccc(NC(=O)CSc2nc(=O)n(Cc3cccnc3)c3c2CCC3)c1	30	1.1
COc1ccc2c(c1)CC(C(=O)NCCN1CCN(c3cccc(C)c3C)CC1)CO2 (stereo not given)	15	-1.1
Cc1ccc(Cl)cc1N1CCN(c2ncnc3c2nc2n3CCCCC2)CC1	2	1.7
COc1ccc(NS(=O)(=O)c2ccc3[nH]c4c(c3c2)CCCC4)cc1Cl	4	4.7
CCc1cccc(C)c1NC(=O)Cn1ccn(Cc2ccc(Cl)cc2)c(=O)c1=O	36	0.9
CCCN(C(=O)Cc1nc(-c2ccc(OC)cc2)no1)c1ccccc1C	2	0.7
CCOC(=O)C1CCCN(C(=O)c2ccc3c(c2)N(Cc2ccc(Cl)cc2)C(=O)c2ccccc2S3=O)C1 (stereo not given)	14	-0.3
COc1ccc(-c2cnnn2-c2ccc(NC(=O)c3ccccc3OC)cc2)cc1	1	1.9
Cc1ccc(C)c(Cn2c(=O)n(Cc3ccc4c(c3)OCO4)c(=O)c3oc4ccccc4c32)c1	17	1.7
CN(C)c1ccc(CNC(=O)Cn2c(=O)oc3cc(S(=O)(=O)NCc4ccccc4)ccc32)cc1	-17	2.0
Cc1ccc(C)c(N2CCN(C(=O)CCc3c(C)nn(-c4ccc(N5CCCC5)nn4)c3C)CC2)c1	19	0.0
O=C(Nc1cc(Cl)ccc1Cl)c1cc(S(=O)(=O)N2CCc3ccccc3C2)ccc1F	-2	0.7
COc1cc(NC(=O)CCCN2C(=O)CCn3nc(-c4cn(C)c5ccccc45)cc32)cc(OC)c1	-3	1.1

(continued)
SMILES	TRPML1 inh	TRPML1 ag
CCc1ccc2c(c1)-c1ccccc1S(=O)(=O)N2CC(=O)N1CCC(C)CC1	-10	0.4
Cc1ccc(-n2nc(C)c3c(C)c(CCC(=O)NCc4ccccc4Cl)c(C)nc32)cc1C	10	-0.8
CC(C(=O)NCc1ccccc1)N1Cc2ccccc2C1=O (stereo not given)	-20	-0.2
Cc1ccc(N(C)C(=O)Cn2cnc3onc(-c4ccc(F)cc4)c3c2=O)cc1C	-16	1.1
CC(C)c1ccc(Nc2c(-c3ccc(N(C)C)cc3)nc3cnccn23)cc1	18	-0.2
COc1ccccc1Cn1c(C2CC(=O)N(c3ccccc3OC)C2)nc2ccccc21 (stereo not given)	-10	0.2
CC(NC(=O)c1ccccc1)c1nc2ccccc2n1Cc1ccc(Cl)cc1 (stereo not given)	16	3.2
COc1cc(NC(=O)c2cc(-c3cccc(OC)c3)n[nH]2)cc(OC)c1	50	0.1
CCn1c(=O)cc(OCC(=O)N2CCN(c3ccc(C)cc3)C(C)C2)c2ccccc21 (stereo not given)	-16	-0.6
O=S(=O)(NCC(c1ccco1)N1CCOCC1)c1ccc(Br)cc1 (stereo not given)	9	0.3
CCOC(=O)c1c(NC(=O)CSc2cn(CCNC(=O)c3ccccc3F)c3ccccc23)sc2c1CCC2	-4	0.0
Cc1ccc(Cl)cc1N1CCN(C(=O)CCn2c(=O)c3cccn3c3cccnc32)CC1	-9	-0.5

Filtered by structure: the compounds so far with a furan ring, fused or not (11)
SMILES	TRPML1 inh	TRPML1 ag
Cc1ccc(C(c2sc3nc(-c4ccco4)nn3c2O)N2CCC3(CC2)OCCO3)cc1 (stereo not given)	-4	3.2
COc1ccc(NC(=O)c2ccco2)cc1NC(=O)COc1ccc(Cl)c(C)c1	6	3.3
CCOC(=O)c1c(C)oc2ccc(N(C(=O)Oc3ccccc3)S(=O)(=O)c3ccc(CC)cc3)cc12	28	0.2
COc1cccc2sc(N(Cc3cccnc3)C(=O)c3ccco3)nc12	7	0.9
CCOC(=O)c1c(C)oc2ncnc(Nc3cccc(C(F)(F)F)c3)c12	-2	-0.8
CCOc1ccc(S(=O)(=O)NCC(c2ccco2)S(=O)(=O)c2ccc(F)cc2)cc1 (stereo not given)	11	2.1
CCc1nn(CC(=O)NCC(C)c2ccccc2)c(=O)c2cc3occc3n12 (stereo not given)	0	-1.2
Cc1ccc(S(=O)(=O)n2nc(-c3ccco3)nc2NCc2ccccc2Cl)cc1	-23	0.1
COc1cccc(CNC(=O)Cc2c(C)c3cc4c(C)coc4cc3oc2=O)c1	10	0.5
Cc1ccc(C)c(Cn2c(=O)n(Cc3ccc4c(c3)OCO4)c(=O)c3oc4ccccc4c32)c1	17	1.7
O=S(=O)(NCC(c1ccco1)N1CCOCC1)c1ccc(Br)cc1 (stereo not given)	9	0.3
